GIRK2 act = activators of human GIRK2 potassium channels; G protein-activated inward rectifier potassium channel 2 (Homo sapiens), P48051; HEK293-GIRK2 thallium flux, Thallos fluorescence; calls only for hits at 25 µM; actives 0.05% (n = 63,000); AID 1259325, 2017;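 active = among the strongest 0.2% of first-round signals and kept after retests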;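 note: first round at about 10 µM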
Target sequence (P48051 whole entry, looked up): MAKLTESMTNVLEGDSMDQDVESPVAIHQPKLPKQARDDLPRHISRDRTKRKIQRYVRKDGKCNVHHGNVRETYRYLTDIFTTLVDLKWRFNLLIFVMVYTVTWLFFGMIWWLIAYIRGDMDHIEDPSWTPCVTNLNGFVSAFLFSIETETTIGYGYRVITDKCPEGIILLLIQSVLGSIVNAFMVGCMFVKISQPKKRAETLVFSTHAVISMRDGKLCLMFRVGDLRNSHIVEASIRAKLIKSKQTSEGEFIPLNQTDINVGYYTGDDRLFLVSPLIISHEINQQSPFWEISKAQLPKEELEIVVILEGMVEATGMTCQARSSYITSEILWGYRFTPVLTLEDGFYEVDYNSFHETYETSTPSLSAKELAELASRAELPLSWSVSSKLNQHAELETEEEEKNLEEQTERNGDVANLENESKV
Calls only; i = inactive.

The opening 19 entries, ahead of the listing:
SMILES	GIRK2 act
CN(CC(=O)NCCSc1nncn1C)c1nc2c(Cl)cccc2s1	i
O=C(CSc1nc2ccccc2s1)N1CCN(c2ncccn2)CC1	i
Cc1cc(=O)n2c(-c3cccc(NC(=O)C(C)Oc4ccc5c(c4)OCO5)c3)csc2n1 (centres undefined)	i
O=C(Cn1nc2c(c1NC(=O)Cc1cccc3ccccc13)CSC2)NCc1ccco1	i
COc1cccc(COC(=O)c2nnn(-c3ccccc3OC)c2C)c1	i
CCc1cc2c(=O)[nH]c(C(C)C)nc2s1	i
Cc1ccccc1Cn1cccc(-c2nc(C3CC3)no2)c1=O	i
CN1C(=O)CCc2cc(NC(=O)c3ccco3)ccc21	i
Cn1cnnc1SCCNC(=O)c1cc(-c2ccc(F)cc2)n[nH]1	i
COc1ccc(Cl)cc1NC(=O)Cn1ncn2nc(-c3ccccc3)cc2c1=O	i
N#Cc1nc(-c2ccc(COc3ccc(Cl)cc3)o2)oc1NCCCN1CCOCC1	i
O=C(CSC1CCCC1)N1CCC(c2nnc(-c3ccco3)o2)CC1	i
Cc1cc(C(=O)N(Cc2ccccn2)c2nc3c(C)cc(Cl)cc3s2)c(C)o1	i
O=C(Nc1nc2c(s1)CN(C(=O)Nc1ccccc1)CC2)c1cccs1	i
COc1ccc(-c2nc(CSc3nc4ccccc4c(=O)n3C)c(C)o2)cc1	i
Cc1nn(C)cc1C(=O)NCCN1CCOCC1	i
COc1cc2ccccc2cc1C(=O)Nc1nnc(-c2ccco2)o1	i
O=C(CSc1nnc(-c2ccncc2)n1-c1ccccc1)Nc1ncccn1	i
COc1ccccc1OCC(=O)Nc1ccc(-n2nnn(C)c2=O)cc1	i

Results, from the start:
SMILES	GIRK2 act
CN(CC(=O)NCCSc1nncn1C)c1nc2c(Cl)cccc2s1	i
O=C(CSc1nc2ccccc2s1)N1CCN(c2ncccn2)CC1	i
Cc1cc(=O)n2c(-c3cccc(NC(=O)C(C)Oc4ccc5c(c4)OCO5)c3)csc2n1 (centres undefined)	i
O=C(Cn1nc2c(c1NC(=O)Cc1cccc3ccccc13)CSC2)NCc1ccco1	i
COc1cccc(COC(=O)c2nnn(-c3ccccc3OC)c2C)c1	i
CCc1cc2c(=O)[nH]c(C(C)C)nc2s1	i
Cc1ccccc1Cn1cccc(-c2nc(C3CC3)no2)c1=O	i
CN1C(=O)CCc2cc(NC(=O)c3ccco3)ccc21	i
Cn1cnnc1SCCNC(=O)c1cc(-c2ccc(F)cc2)n[nH]1	i
COc1ccc(Cl)cc1NC(=O)Cn1ncn2nc(-c3ccccc3)cc2c1=O	i
N#Cc1nc(-c2ccc(COc3ccc(Cl)cc3)o2)oc1NCCCN1CCOCC1	i
O=C(CSC1CCCC1)N1CCC(c2nnc(-c3ccco3)o2)CC1	i
Cc1cc(C(=O)N(Cc2ccccn2)c2nc3c(C)cc(Cl)cc3s2)c(C)o1	i
O=C(Nc1nc2c(s1)CN(C(=O)Nc1ccccc1)CC2)c1cccs1	i
COc1ccc(-c2nc(CSc3nc4ccccc4c(=O)n3C)c(C)o2)cc1	i
Cc1nn(C)cc1C(=O)NCCN1CCOCC1	i
COc1cc2ccccc2cc1C(=O)Nc1nnc(-c2ccco2)o1	i
O=C(CSc1nnc(-c2ccncc2)n1-c1ccccc1)Nc1ncccn1	i
COc1ccccc1OCC(=O)Nc1ccc(-n2nnn(C)c2=O)cc1	i
CC(C)C(=O)Nc1ccc(S(=O)(=O)NCCOc2ccc(F)cc2)cc1	i
CC(O)(CNC(=O)Nc1ccccc1Cl)c1ccco1 (centres undefined)	i
O=C(NCCC(O)c1cccc2ccccc12)C(=O)NCC(F)(F)F (centres undefined)	i
COc1ccc(CCNC(=O)NCC(C)(O)CCSC)cc1 (centres undefined)	i
CCOc1cc(C(=O)NC2CC(=O)N(C3CC3)C2)cc(OCC)c1OCC (centres undefined)	i
COc1cccc(CSc2nc(C)c(CC(=O)NCc3ccco3)c(=O)[nH]2)c1	i
SMILES	GIRK2 act
COc1ccc(NC(=O)CSC2=NNC3C4CC(c5ccc(OC)cc5)NN4C=CN23)cc1 (centres undefined)	i
CCOC(=O)CCC(=O)N1CCC(c2nnc(-c3ccco3)s2)CC1	i
CCc1nnc2c(=O)n(-c3ccc(OC)c(Cl)c3)ccn12	i
CCCOC(=O)c1ccc(Oc2c(C)oc3cc(OCC(N)=O)ccc3c2=O)cc1	i
CC(=O)N(C)CC(=O)Nc1ccc(Nc2cc(-n3cccn3)nc(C)n2)cc1	i
O=C(c1c[nH]c2ccccc12)N1CCN(CC(O)C2CC2)CC1 (centres undefined)	i
Cc1noc(-c2ccc(NC(=O)CSc3ccc(F)cc3)cc2)n1	i
O=S(=O)(c1ccc(F)c(Cl)c1)N1CCC2(CC1)OCCS2	i
CCOc1ccc(C(=O)N2CCC(CSc3ccc(OC)cc3)CC2)cc1	i
CN1CCC(N(C)C(=O)C2CCC(CNS(C)(=O)=O)CC2)CC1 (centres undefined)	i
O=C(NCc1ccccn1)C1CCCN(c2ccc(-c3ccc(F)cc3)nn2)C1 (centres undefined)	i
O=C(c1ccc(Br)o1)N1CCN(CC(O)C2CC2)CC1 (centres undefined)	i
O=C(NC1CCCC1)c1nnn(-c2ccc(C(F)(F)F)cc2)n1	i
CCCC(CCC)C(=O)Nc1c(C)nc2sc(C)c(C)n2c1=O	i
Cc1ccc(-c2nc3c(c(=O)n2CC(=O)NCc2cccs2)CCN(Cc2ccccc2)C3)cc1	i
COc1ccc(Cl)cc1NCCn1c(C)cn2c3c(=O)n(C)c(=O)n(C)c3nc12	i
CC(C)c1ccc(NS(=O)(=O)C2CC2)cc1	i
Cc1nnsc1C(=O)N(CCN1CCOCC1)c1nc2c(S(C)(=O)=O)cccc2s1	i
COc1nn(C)cc1C(=O)Nc1ccc2c(c1)C(=O)NCC2	i
CSc1ccc(-c2noc(-c3nn(-c4ccc(C)c(C)c4)ccc3=O)n2)cc1	i
Cc1c(Cl)cccc1S(=O)(=O)NCCC(O)c1ccc2c(c1)OCO2 (centres undefined)	i
CC(=O)N[C@@H](Cc1ccc(OP(=O)(O)O)cc1)C(=O)N[C@H]1CCC(=O)N2CCC[C@@H](C(=O)NCc3cccc4ccccc34)N2C1=O	i
CC(C)c1c(C(=O)NC2CCCC2)nnn1-c1cccc(C(F)(F)F)c1	i
CCOc1cc(S(=O)(=O)NCCCN2CCOCC2)ccc1F	i
O=C1CCCN1C1CCN(S(=O)(=O)Cc2ccccc2)CC1	i
SMILES	GIRK2 act
Cc1ccccc1NC(=O)c1c(C)coc1C	i
CC(C)(C)c1ccc(C(=O)N2CCC(Oc3cnccn3)CC2)cc1	i
CCc1ccc(N2CC(C)Cn3c2nc2c3c(=O)n(CC(=O)O)c(=O)n2C)cc1 (centres undefined)	i
N#Cc1cccc(Cn2c(=O)n(CCc3cccs3)c(=O)c3sccc32)c1	i
Cc1ccc(CNC(=O)c2cn(-c3ccc(Cl)cc3)nn2)cc1	i
N#C/C(C(=O)N1CCCCC1)=C1/N=C(NC(=O)c2cccs2)c2ccccc21	i
O=C(c1cc(-n2ccnc2)ccn1)N1CCN(c2ncccn2)CC1	i
Cc1cc(C(=O)N2CCOCC2CN(C)C)c(C)o1 (centres undefined)	i
O=C(Cn1c(=O)oc2ccccc21)NCc1ccsc1	i
C[C@H](CS)C(=O)N1CCC[C@H]1C(=O)O	i
COc1ccc(C(=O)/C=C/c2ccc(OC)cc2OC)c(O)c1	i
CCOc1ccc(CC(=O)NCC2(O)CCc3ccccc3C2)cc1 (centres undefined)	i
O=C(NCCOc1ccccc1)NCC1CCN(C(=O)Nc2ccc(F)cc2)CC1	i
O=C(NCCOc1ccc(F)cc1)NCc1ccc(Cl)cc1	i
CCOc1ccc2ccccc2c1C(=O)Nc1cc(-n2cccn2)ncn1	i
COC(=O)CN1CCN(c2nc3c(c(=O)[nH]c(=O)n3C)n2Cc2cccc(C)c2)CC1	i
COc1cccc(CC(=O)Nc2ccc(-n3nnc(C(=O)NC4CC4)n3)cc2)c1	i
O=C(Nc1cnc(Oc2ccccc2)nc1)Nc1ccc(F)c(Cl)c1	i
CC(C)(C)c1ccc(OCC(O)CN2CCN(CCO)CC2)c(C(C)(C)C)c1 (centres undefined)	i
CCCCCn1c(=S)[nH]c2cc(C(=O)NCC3CCCO3)ccc2c1=O (centres undefined)	i
COC(=O)c1cc(OC)c(OC)cc1NC(=O)C1Cc2ccc(Cl)cc2C(=O)O1 (centres undefined)	i
O=C(c1cncc(Br)c1)N1CCN(C(=O)c2cnn3ccccc23)CC1	i
N#Cc1ccc(C(=O)NC2CC(O)C(CO)C2)cc1 (centres undefined)	i
O=C(NCCCn1ncccc1=O)c1cccs1	i
Cc1cccc(N2CCCn3c2nc2c3c(=O)n(CC(=O)O)c(=O)n2C)c1	i
SMILES	GIRK2 act
Cn1c2ccccc2c(=O)c2c(=O)n(CCc3ccccc3)c(-c3ccco3)nc21	i
CCCCNC(=O)Cn1cc(-c2nc(-c3ccc(Cl)cc3)no2)ccc1=O	i
Cc1cc(C)n(CCNC(=O)c2csc(-c3cc4ccccc4n3C)n2)n1	i
CC(C)=CCOc1cc(C2CC(=O)c3c(O)cc(O)cc3O2)cc2c1OC(C)(C)C(O)C2O (centres undefined)	i
COC(=O)CN1N=C(C)Cn2c1nc1c2c(=O)n(Cc2ccccc2)c(=O)n1C	i
CCOC(=O)N1CCC(NC(=O)c2cc(=O)c(OCc3ccccc3)c[nH]2)CC1	i
O=S(=O)(c1cccnc1)N1CC(c2nc(Cc3ccccc3)no2)C1	i
COC1(CNC(=O)c2c(C)nc3ccccn23)CCSC1 (centres undefined)	i
COc1ccc(OC)c(-c2cc(C(=O)NCC3(c4ccc(F)cc4)CC3)n(C)n2)c1	i
Nc1c(C(=O)NCCc2ccccc2)c2nc3ccccc3nc2n1/N=C\c1ccccn1	i
COc1cccc2sc(OC3CN(C(=O)c4ccco4)C3)nc12	i
COc1ccc(Br)cc1S(=O)(=O)N1CCCCC1C (centres undefined)	i
O=C(c1csc(-c2cnccn2)n1)N1CCc2ccccc21	i
COc1ccc(N2C(=O)CSC23C(=O)N(CC(N)=O)c2ccccc23)cc1 (centres undefined)	i
O=c1[nH]c2nc(N3CCc4ccccc43)ncc2c(=O)n1-c1ccccc1	i
CC(C)c1ccc(Cn2c(C3CC(=O)N(C(C)(C)C)C3)nc3ccccc32)cc1 (centres undefined)	i
O=C(c1ccc2c(=O)n(Cc3ccc(Cl)cc3)c(=S)[nH]c2c1)N1CCC(N2CCCCC2)CC1	i
Cc1ccc(NC(=O)C(=O)NCCC(O)c2cccc3ccccc23)cc1Cl (centres undefined)	i
CC1(C)CC[C@]2(C(=O)O)[C@H](O)C[C@]3(C)C(=CCC4[C@@]5(C)CC[C@H](O[C@@H]6OC[C@@H](O)[C@H](O)[C@H]6O)[C@@](C)(C(=O)O)C5CC[C@]43C)[C@@H]2C1 (some centres undefined)	i
CCOc1cc(C(=O)Nc2ccc3c(c2)CCCN3C(=O)CC)cc(OCC)c1OCC	i
c1cc(-c2nnc(-c3ccoc3)o2)ccn1	i
O=C(C1CC1)N1CCN(Cc2nc(-c3ccc(F)cc3)cs2)CC1	i
CC(Cc1ccco1)NC(=O)C(=O)NCCC1=CCCCC1 (centres undefined)	i
CC(=O)Nc1c(-c2ccccn2)nsc1C(=O)N1CCCCCC1	i
CC(=O)N1CCc2c(sc(NC(=O)c3ccc(Cl)cc3)c2-c2nc3ccccc3s2)C1	i
SMILES	GIRK2 act
CN(CC(=O)Nc1ccccc1OC(F)(F)F)C(=O)c1ccc(=O)[nH]c1	i
Cc1cc(F)ccc1NC(=O)CSc1cc(NCc2ccccc2Cl)ncn1	i
CN1C(=O)C(C)(C)COc2ccc(NC(=O)NC(C)(C)C)cc21	i
CCn1c(=O)c2ccccc2n(Cc2nc(-c3cc(OC)cc(OC)c3)no2)c1=O	i
COc1cc(NC(=O)NCC2CCN(C)CC2)cc(OC)c1OC	i
Cc1c(CNC(=O)NCCOc2ccccc2)sc2nc(-c3ccc(F)cc3)cn12	i
CCOC(=O)CCn1c(=O)c2c(nc3n(-c4ccccc4C)c(C)c(C)n23)n(C)c1=O	i
Cc1oc2cc(OCCN3CCC(C(N)=O)CC3)ccc2c(=O)c1-c1ccc(Br)cc1	i
COc1ccc(OC)c(-c2cc(C(=O)N3CCOC(c4ccccc4)C3)n(C)n2)c1 (centres undefined)	i
O=C(Cn1cnc2ccccc21)N1CCN(c2ccccn2)CC1	i
O=C(CSc1ccc(F)cc1)NC1CC(=O)N(C2CC2)C1 (centres undefined)	i
COCCNC(=O)Cc1ccc(NS(=O)(=O)c2ccc(C(C)=O)cc2)cc1	i
CCc1ccc(NCc2cc3ccc(OC)cc3n(CC(=O)Nc3cccc(OC)c3)c2=O)cc1	i
COc1ccc2nc(-c3cccc(NC(=O)c4cc5ccccc5oc4=O)c3)cn2n1	i
O=C(CCSc1ccccc1)NCC1CCN(Cc2ccsc2)CC1	i
CN1CC(c2nc3ccccc3n2Cc2ccc(C(C)(C)C)cc2)CC1=O (centres undefined)	i
CCOc1ccc(-c2ccc(=O)n(CC#N)n2)cc1	i
COC(=O)c1ccc(CSc2nnc(C(C)C)c3cnn(-c4ccccc4)c23)o1	i
O=C(Nc1cccc2cnccc12)c1ccc(Cl)c(S(=O)(=O)N2CCOCC2)c1	i
COC(=O)c1ccc(Cn2cccc(-c3nc(-c4ccsc4)no3)c2=O)o1	i
O=S(=O)(CCc1ccccc1)NCCN1CCN(c2ccc(Cl)cc2)CC1	i
C=CCOCC(O)Cn1c(N2CCOCC2)nc2c1c(=O)n(C)c(=O)n2C (centres undefined)	i
COc1ccc(S(=O)(=O)CCC(=O)Nc2nc(-c3cc4ccccc4o3)cs2)cc1	i
CC(C)c1cc(=O)[nH]c(-n2nc(C3CC3)cc2NC(=O)c2ccc(F)c(F)c2)n1	i
COC(=O)c1ccc(/C=C/C(=O)c2ccc(OC)cc2)cc1	i
COc1ccccc1C(=O)Nc1ccccc1NC(=O)C1(c2cccs2)CCCC1	i
CCS(=O)(=O)c1ccc(OC)c(Nc2ncc(-c3cccc(F)c3)o2)c1	i
Cc1cccc(OCC(=O)Nc2nonc2-c2ccc(Cl)cc2)c1C	i
O=C(O)c1ccccc1NC(=O)C1CCCN1C(=O)c1ccc([N+](=O)[O-])cc1 (centres undefined)	i

Bioassay records deposited in PubChem by Vanderbilt University.

The list is partial (hit frequency here may not be typical).
